# Screens deposited in PubChem by National Center for Advancing Translational Sciences (NCATS).
# Cruzain inh noDet: blocks cruzain activity in detergent-free assay; P25779; purified cruzain, Z-FR-AMC fluorescence, no detergent; Potency, µM, inactives show max response, negative = inhibition, usual class: inhibitors; 2.3% of 200,000 active; active = well fitted curve in the direction sought with a large enough effect; inconclusive = small, poorly fitted or top-dose-only effect, or another doubt; inactive = no such curve, though single readings can be large; an effect the other way counts as inactive or inconclusive;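 note: plate controls were enzyme without inhibitor for no effect and buffer without enzyme for full effect; nearly all actives have a fitted effect of over 40% in size; top concentration of the series not given in the record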
# Target sequence (P25779 123-467 limits assumed): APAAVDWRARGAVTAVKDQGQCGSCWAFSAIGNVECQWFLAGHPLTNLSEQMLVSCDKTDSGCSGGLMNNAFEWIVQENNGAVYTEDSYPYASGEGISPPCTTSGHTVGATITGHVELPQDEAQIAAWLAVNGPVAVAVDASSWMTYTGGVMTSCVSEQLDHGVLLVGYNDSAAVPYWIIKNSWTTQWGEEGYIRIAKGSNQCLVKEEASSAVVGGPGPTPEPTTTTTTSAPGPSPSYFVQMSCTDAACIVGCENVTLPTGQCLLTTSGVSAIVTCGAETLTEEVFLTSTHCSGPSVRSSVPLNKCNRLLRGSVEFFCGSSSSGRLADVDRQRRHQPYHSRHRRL
#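 Detergent-free condition (0.00005% Triton X-100) in acetate buffer pH 5.5 with DTT. 1.5 nM enzyme and compound were pre-mixed 15 min, then 2 uM Z-FR-AMC substrate added; reaction progress from fluorescence change between first and third reads (60 s).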
# NS1 inh: blocks influenza NS1 protein function; AID 2326; S. cerevisiae slowed by influenza A NS1, growth recovery by OD600; Potency, µM (top dose mostly 46.1 µM), without a hit: at the top dose activity, positive = more growth; 0.4% of 270,000 active; note: actives are rising curves; nearly all actives have a fitted effect of over 50% in size
#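 In this qHTS, NS1 from influenza A is expressed in budding yeast, where it slows growth. Cells are switched from glucose to 2% galactose medium (pH 6.0, -URA), treated with compound, and growth recovery is read at OD600.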
# SARS PLP yeast: SARS-CoV PLP inhibition in yeast; 0.19% of 330,000 active; S. cerevisiae expressing SARS-CoV PLpro, growth rescue; control for the full effect not named in the record; Potency, µM (titrated, usually from 32.9 µM), for the others: at the highest dose activity, positive = growth rescue; note: 0% is about no effect; nearly all actives have a fitted effect of over 55% in size; growth read by luminescence after 48 h
# Marburg entry inh: blocks Marburg virus binding to or entry into cells; Marburg virus pseudotyped entry inhibition, cell reporter; control for the full effect not named in the record; about a third of the inactives were read at about 46 µM; Potency, µM (doses to about 37.8 µM), inactives show at the highest dose activity change, negative = inhibition, most hits filed as inhibitors; 1.8% of 300,000 active; active = well fitted inhibition curve with a large enough effect; inconclusive = small, poorly fitted or top-dose-only effect, or effect the other way; inactive = flat fitted curve, though single readings scatter; tested in HEK293 cells; about a fifth of its hits are not listed in these tables; note: % is set by controls: 0 for no effect and ±100 for the full control effect; luciferase read-out
# RE007 growth inh: less growth of the S. pombe RE007 Vpr strain. S. pombe RE007 Vpr strain, BacTiter-Glo ATP luminescence, 24 h; control for the full effect not named in the record. Potency, µM (titrated, usually from 92.2 µM), inactives show top-dose activity change, negative = less growth. 0.21% of 360,000 active. AID 651644; active = well fitted falling curve with a large enough effect; inconclusive = small, poorly fitted or top-dose-only effect; inactive = no such curve, though single readings can be large or run the other way;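 note: % is set by controls: 0 for no effect and ±100 for the full control effect; nearly all actives have a fitted effect of over 50% in size; the assay follows cell death caused by Vpr and the record does not say whether a fall means rescue or toxicity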
#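 Fission yeast strain RE007, carrying one chromosomally integrated HIV-1 vpr copy, was seeded at OD 0.01 in PMG+AL medium with 23 nL pinned compound. After 24 h at 30 °C and 99% humidity, viability was read by BacTiter-Glo luminescence.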
# StopGo reporter: lowers the luciferase signal of an FMDV 2A StopGo reporter; human cells with a luciferase reporter of 2A StopGo recoding; control for the full effect not named in the record; Potency, µM (top dose mostly 57.9 µM), for inactives: top-dose signal change, negative = less light; 1.2% of 410,000 active; active = well fitted falling curve with a large enough effect; inconclusive = small, poorly fitted or top-dose-only effect; inactive = no such curve, though single readings can be large or run the other way; tested in HEK293T cells; note: % is set by controls: 0 for no effect and ±100 for the full control effect; nearly all actives have a fitted effect of over 45% in size; luciferase light after 4 h
# LASV entry inh: Lassa virus entry inhibition; Lassa virus pseudotype entry inhibition, cell reporter; control for the full effect not named in the record; Potency, µM (series often up to 37.9 µM), inactives show at the top dose activity change, negative = inhibition, usual class: inhibitors; 1.2% of 300,000 active; AID 540256; active means well fitted inhibition curve with a large enough effect; inconclusive means small, poorly fitted or top-dose-only effect, or effect the other way; inactive means flat fitted curve, though single readings scatter; tested in HEK293 cells; note: % is set by controls: 0 for no effect and ±100 for the full control effect; nearly all actives have a fitted effect of over 50% in size; luciferase read-out
# Cruzain inh Det: inhibitors of Trypanosoma cruzi cruzain with detergent | P25779 | purified cruzain, Z-FR-AMC fluorescence, 0.01% Triton | Potency, µM, inactives show max response, negative = inhibition, hits mostly inhibitors | 0.43% of 200,000 active | AID 1478; active = well fitted curve in the direction sought with a large enough effect; inconclusive = small, poorly fitted or top-dose-only effect, or another doubt; inactive = no such curve, though single readings can be large; an effect the other way counts as inactive or inconclusive;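 note: plate controls were neutral wells for no effect and buffer without enzyme for full effect; nearly all actives have a fitted effect of over 40% in size; top concentration of the series not given in the record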
#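 Z-FR-AMC hydrolysis (2 uM substrate) by cruzain (1.5 nM) monitored kinetically at ex 360/em 450 nm after 15 min room-temperature compound exposure; 0.01% Triton X-100, pH 5.5, 5 mM DTT.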
# * = called active by the depositor; ? = inconclusive; · = not tested or not shown; [ ] = another dose, or the depositor's remark. Unless noted, calls come from the whole dose curve; as a rule, active means well fitted rising curve with a large enough effect; inconclusive means small, poorly fitted or top-dose-only effect; inactive means no such curve, though single readings can be large or run the other way. Potency is the fitted concentration of half-maximal effect.
structure | LASV entry inh | RE007 growth inh | Cruzain inh noDet | Cruzain inh Det | NS1 inh | StopGo reporter | Marburg entry inh | SARS PLP yeast
Cc1cccc(OCC(=O)NNC(=O)c2ccc3nc[nH]c3c2)c1 | 4% | -6% | · | · | · | -5% | 4%[46.1 µM] | 6%
COc1ccc(C(=O)Nc2cc3c(cc2C(=O)O)OCCCO3)c(OC)c1 | -2% | 4% | · | · | -21% | 12% | ? | 2%
Cc1ccc2c(C(=O)CN3CCN(c4ccccc4)CC3)c(C)[nH]c2c1 | 0% | 0% | -5% | -3.9% | -3% | -14% | 3%[46.1 µM] | -1%
NC(=O)c1nn(Cc2ccccc2)c(=O)c2ccccc12 | -1% | 10% | · | · | 11% | -23% | -8%[46.1 µM] | 2%
C=CCNC(=S)N/N=C/c1ccc(-c2cc(Cl)ccc2Cl)o1 | -18% | -5% | 7.9µM* | 0.8% | 11% | 0% | -10% | ·
O=C(CSc1nc2ccsc2c(=O)n1CC1CCC(C(=O)O)CC1)c1ccc(F)cc1 (configuration not stated) | 19%[46.1 µM] | 7% | · | · | · | 15% | 4%[46.1 µM] | -3%
CCOC(=O)c1ccc(Cl)c(S(=O)(=O)N2CCCC2)c1 | 12% | 31% | · | · | -1% | -18% | 2%[46.1 µM] | 0%
COC(=O)c1cc(N=Nc2sc(N)nc2C)cc(C(=O)OC)c1 | · | -13% | · | · | 3% | 26% | · | 0%

# Grouped by structure: the entries above containing a carbonyl joined to an NH by a bond outside any ring
structure | LASV entry inh | RE007 growth inh | Cruzain inh noDet | Cruzain inh Det | NS1 inh | StopGo reporter | Marburg entry inh | SARS PLP yeast
Cc1cccc(OCC(=O)NNC(=O)c2ccc3nc[nH]c3c2)c1 | 4% | -6% | · | · | · | -5% | 4%[46.1 µM] | 6%
COc1ccc(C(=O)Nc2cc3c(cc2C(=O)O)OCCCO3)c(OC)c1 | -2% | 4% | · | · | -21% | 12% | ? | 2%
NC(=O)c1nn(Cc2ccccc2)c(=O)c2ccccc12 | -1% | 10% | · | · | 11% | -23% | -8%[46.1 µM] | 2%

# Continuation:
structure | LASV entry inh | RE007 growth inh | Cruzain inh noDet | Cruzain inh Det | NS1 inh | StopGo reporter | Marburg entry inh | SARS PLP yeast
CCCc1ccc(S(=O)(=O)N2CCN(C(C)C(=O)NCc3ccccc3)CC2)cc1 (configuration not stated) | -18% | -18% | · | · | · | -9% | ? | -1%
CC1CCN(S(=O)(=O)c2cccc(C(=O)NCC3CCCO3)c2)CC1 (configuration not stated) | 6.3µM* | 9% | · | · | 14% | 2% | 29%[46.1 µM] | -4%
Cc1cccc(CS(=O)(=O)Cc2ccc(C(=O)O)o2)c1 | 2% | 1% | -2% | 3.2% | -1% | -14% | 16%[46.1 µM] | 2%
CS(=O)(=O)CCC(C(=O)n1nnc2ccccc21)N1C(=O)c2ccccc2C1=O (configuration not stated) | -8% | 18% | -6% | 8.5% | 2% | 5% | -5%[46.1 µM] | 2%
CC(Oc1ccccc1)C(=O)NC1CCN(Cc2ccccc2)CC1 (configuration not stated) | 0% | -20% | -2% | 1.8% | -10% | -31% | -18% | ?
COc1cc(NC(=O)C(CC(C)C)NS(=O)(=O)c2ccc3c(c2)CCN3C(C)=O)cc(OC)c1 (configuration not stated) | -6%[46.1 µM] | · | 2% | -2.7% | · | 6% | -18%[46.1 µM] | ·
Cc1noc(C)c1S(=O)(=O)Nc1ccc(C(=O)N2CCN(c3ccc(Cl)cc3)CC2)cc1 | -4% | -10% | ? | -8.2% | -49% | -27% | ? | -6%
Cc1ccc(C)c(NC(=O)c2ccccc2Sc2ccc([N+](=O)[O-])cc2Cl)c1 | -6% | 3% | 11% | -5.8% | 17% | -13% | ? | -29%
O=C(CCS(=O)(=O)c1ccc(Br)cc1)Nc1ccc2c(c1)OCO2 | 0% | 13% | -26% | -13% | -1% | 43%[activator] | 19% | 6%
COc1ccc(CCNCC2C(Oc3ccc(Cl)cc3)C(=O)N2c2ccccc2C)cc1OC (configuration not stated) | 5%[46.1 µM] | 8% | · | · | · | ? | 11µM* | -1%
CCc1c(C(=O)N/N=C/c2ccc(C)o2)csc1C | 0% | 7% | -9% | -6.1% | -21% | 15% | -7% | -66%
C=C1Cn2c(nnc2-c2ccc(Cl)cc2)S1 | · | -21% | 0% | 4.8% | -5% | -21% | · | -17%
CCOC(=O)CSc1nc2ccccc2c(=O)n1CC1COc2ccccc2O1 (configuration not stated) | 8% | -10%[3.69 µM] | -14% | -0.5% | -90% | -7% | -3% | 0%
CCn1c(SCC(=O)N2CCCCC2C)nc2c1c(=O)n(C)c(=O)n2C (configuration not stated) | · | 0% | · | · | 5% | -11% | ? | -3%
COc1ccccc1N(C(=O)c1snc(C(N)=O)c1N)C(C(=O)NC1CCCC1)c1ccco1 (configuration not stated) | ? | -10% | -20% | -5.5% | 1% | -4% | ? | 5%
COc1cccc(C(C)=C2SC(=S)NC2=O)c1 | 8% | -10% | · | · | · | 26% | 22% | ·
Cc1nc(CNC(=O)CC2C(=O)NCCN2Cc2ccc(F)cc2)cs1 (configuration not stated) | 6% | -9% | · | · | 9% | -4% | 19% | -1%
Cc1cccc(C)c1NC(=S)/N=C/N(C)C | -5% | -9% | · | · | -2% | 0% | 8%[46.1 µM] | -1%
CCN(CC)c1nc(Nc2ccccc2)nc(Oc2ccc(=O)n(C)n2)n1 | 15% | 6% | 10% | -4.6% | -22% | ? | ? | 2%
COC(=O)c1ccccc1S(=O)c1snnc1C (configuration not stated) | -8% | 1% | · | · | -3% | 1% | 4%[46.1 µM] | 1%
COc1ccc(C(=O)NCCCc2nc3ccccc3n2Cc2cc(C)ccc2C)cc1OC | ? | 2% | ? | -1.4% | -24% | ? | ? | -10%
O=C(O)/C=C/C(=O)N1CCN(c2ccc(F)cc2)CC1 | 5% | 2% | · | · | 3% | 3% | 3%[46.1 µM] | -1%
NC(=O)COc1ccc(/C=C2\C(=O)ON=C2c2ccccc2)cc1 | 23% | -24% | · | · | · | 25µM* | ? | 4%
COc1ccc(C(c2c(C)[nH][nH]c2=O)c2c(C)[nH][nH]c2=O)cc1Br | · | -7% | · | · | -8% | -15% | · | -4%
CCC(=O)Nc1ccc(Nc2nc(Cl)nc(Nc3ccc(NC(=O)CC)cc3)n2)cc1 | 5%[46.1 µM] | 7% | · | · | · | -7% | -2%[46.1 µM] | 0%
O=c1nc(SCc2ccccc2Cl)nc(-c2ccc(Cl)cc2)[nH]1 | 5% | 3% | · | · | 0% | 2% | 0%[14.2 µM] | -3%
COc1cc(NC(=S)N2CCN(C(c3ccccc3)c3ccccc3)CC2)cc(OC)c1 | ? | 10% | ? | 1.3% | 28% | -14% | ? | -1%
COc1ccc(OC)c(CNS(=O)(=O)c2cc(-c3onc(C)c3C)ccc2C)c1 | -12%[46.1 µM] | · | -4% | -3.1% | · | 11% | · | ·
CCC(C(=O)c1ccccc1)N(C(=O)c1ccccc1Cl)N1C(=O)C2C3C=CC(C3)C2C1=O (configuration not stated) | -4% | -16% | -2% | -1.6% | -3% | -23% | -21% | -2%
COc1ccc2c(=O)c(C(=O)NCc3ccccc3)c[nH]c2c1 | -3%[46.1 µM] | 5% | · | · | 6% | -2% | -12%[46.1 µM] | 3%
COc1ccc(NC(=O)c2cn(-c3ccccc3)nc2SC)cc1 | · | 43% | · | · | -6% | 31%[activator] | · | -1%
COc1ccc(C2(C)NC(=O)N(CC(=O)NCc3ccccc3)C2=O)cc1OC (configuration not stated) | ? | 5% | · | · | 2% | -4% | 2% | 1%
CCC(CC)c1nnc(NC(=O)Oc2ccccc2)s1 | -22%[14.3 µM] | -18% | -5% | 7.4% | 25% | -28% | 29% | 2%
CCc1ccc(NC2=NCC(=O)N2c2ccc3c(c2)OCCO3)cc1 | 6% | 6% | 0% | 1.1% | -3% | -17% | 3% | -9%
COc1ccc(NS(=O)(=O)c2ccc(O)c(C(=O)OCC(=O)NC(C)C3CC4CCC3C4)c2)cc1 (configuration not stated) | 17% | -5% | · | · | 16% | 15% | -11% | 0%
O=C(CN1CCN(S(=O)(=O)c2ccc(F)cc2)CC1)Nc1ccc2c(c1)OCCO2 | 8% | 8% | -5% | -0.1% | ? | 0% | 12% | 1%
Cc1ccccc1NC(=O)CCn1nc(-c2ccccc2)c2ccccc2c1=O | ? | · | -1% | -0.8% | · | 0% | · | ·
O=C(Nc1ccc(F)c([N+](=O)[O-])c1)c1cccn(Cc2ccccc2)c1=O | 2%[46.1 µM] | · | -13% | -0.7% | · | 6% | · | ·
COc1ccc(N2CCN(C(=O)CSc3nnc(Cn4nnc5ccccc54)n3C)CC2)cc1 | 12% | 8% | -2% | 1.4% | 2% | · | -15% | 2%
Cn1nnnc1SCc1cccc(CSc2nnnn2C)n1 | 12% | 8% | 1% | 4.0% | 4% | 15% | 20% | 4%
CCc1ccc(C2c3c(oc4ccc(F)cc4c3=O)C(=O)N2CCc2ccc(OC)cc2)cc1 (configuration not stated) | 17%[46.1 µM] | · | -4% | -0.4% | · | -24% | -8%[46.1 µM] | ·
Cc1c(C(C)NC(=O)c2cc(COc3cccc4cnccc34)on2)cnn1C (configuration not stated) | · | -24% | · | · | -1% | ? | · | -4%
Cc1onc(-c2ccccc2Cl)c1-c1nc(-c2ccncc2)no1 | 1% | -12% | 0% | -6.0% | -1% | ? | -18% | -23%
CC(C)(C)c1ccc(Oc2nc3ccccn3c(=O)c2/C=C(\C#N)c2nc3ccccc3[nH]2)cc1 | ? | · | 8% | -3.6% | · | -6% | ? | ·
Cc1nc2ccccn2c1C(=O)NNC(=O)Nc1ccccc1 | · | 0% | · | · | 9% | -9% | · | ?
O=C(NCc1cccnc1)c1ccc(Cn2c(=S)[nH]c3ccc(Br)cc3c2=O)cc1 | -6% | 0% | · | · | · | -4% | ? | -1%
